# AID504770 = E. coli YBA685 growth inhibition, screen for V. cholerae RctB inhibitors; E. coli YBA685 rctB-dependent plasmid, OD600 growth, 3 h; active compounds read low; z-score (concentration not given with the values); 0.27% of 130,000 active;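 active = z-score under -2 on both plates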;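 note: wells of about 30 µL received 100 nL stock; score is relative to mean and SD of the test wells; the first replicate is given; strong numbers were not always called active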
# CapD inh = CapD enzyme inhibition | purified CapD enzyme, fluorescence intensity read-out; active compounds read low; some hits fall short of the stated cut | 0.23% of 140,000 active | z-score (test concentration not listed);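 active = z-score under -4 in either of two replicates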;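 note: stock transfer was 100 nL into about 40 µL; score is relative to mean and spread of the plate; one replicate is shown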
# * = called active by the depositor; / = no result given.
# Start of the data: the first 3 entries as a preview:
# Order of results: AID504770	CapD inh
- COc1cc(C2C3=C(CC(C)(C)CC3=O)OC3=C2C(=O)CC(C)(C)C3)cc(OC)c1OCc1ccc(Cl)c(Cl)c1
    /	-1.31
- COc1ccc(N2CCN(/C(=C/C#N)NC(=O)Nc3ccc(C)cc3)CC2)cc1
    /	-0.58
- Cc1ccc(-c2cc(C(F)F)nc(NCC3CCCO3)n2)cc1 (centres undefined)
    -0.65	53.7

# The listing, from the start:
# Order of results: AID504770	CapD inh
- COc1cc(C2C3=C(CC(C)(C)CC3=O)OC3=C2C(=O)CC(C)(C)C3)cc(OC)c1OCc1ccc(Cl)c(Cl)c1
    /	-1.31
- COc1ccc(N2CCN(/C(=C/C#N)NC(=O)Nc3ccc(C)cc3)CC2)cc1
    /	-0.58
- Cc1ccc(-c2cc(C(F)F)nc(NCC3CCCO3)n2)cc1 (centres undefined)
    -0.65	53.7
- COc1ccc2nc(-c3ccc(N)cc3)[nH]c2c1
    -0.75	/
- Cc1ccc2c(CC(=O)N(C)Cc3nc4ccccc4c(=O)[nH]3)coc2c1
    1.9	/
- COc1cc(OC)nc(-c2sc3ccccc3c2OCC2CCCCO2)n1 (centres undefined)
    /	2.09
- COC(=O)c1ccc(NC(C)=O)c(NC(C)=O)c1
    /	-0.28
- CCOC(=O)C(CC)SC1=NS(=O)(=O)c2cc(Cl)ccc2N1 (centres undefined)
    -0.85	/
- Cn1ncc(Br)c1NC(=O)CN1CCCCC1
    0.85	-0.405
- NCCc1c(C(=O)O)[nH]c2ccccc12
    -0.2	1.74
- Cc1ccc2c(c1)c(C)c(C)n2CC(O)Cn1nnc2ccccc21 (centres undefined)
    -0.95	-0.515
- Cc1cc(C)c(C)c(S(=O)(=O)N2CCN(c3cccc4[nH]ccc34)CC2)c1C
    /	-0.48
- O=S(c1ccc2ccccc2c1)N(Cc1ccc(F)cc1)Cc1ccco1 (centres undefined)
    0.55	0.33
- CSc1nc(Sc2ccc(F)cc2)c2sc3ccccc3c2n1
    /	-0.66
- O=C(CCN1CCN(c2nccc(C(F)(F)F)n2)CC1)N1CCCN(c2ccc(C(F)(F)F)cn2)CC1
    -0.15	0.345
- Cn1c(CCc2nc3ccccc3[nH]2)nnc1SCC#N
    0.25	/
- COc1cccc2sc(=NC(=O)c3ccc(C#N)cc3)n(C)c12
    -1	0.16
- O=C(COc1ccc(Cl)cc1Cl)Nc1c2c(nn1-c1ccc(F)cc1)CS(=O)(=O)C2
    /	-0.725
- COC(=O)c1c(C)oc(C)c1S(=O)(=O)N(C)C1CCCCC1
    1	-1.38
- CC1S/C(=N\C(=O)Nc2ccc(Cl)cc2)NC1=O (centres undefined)
    -0.8	/

# Three entries out of the list, arranged by formula weight, smallest number first:
# Order of results: AID504770	CapD inh
- NCCc1c(C(=O)O)[nH]c2ccccc12
    -0.2	1.74
- COC(=O)c1ccc(NC(C)=O)c(NC(C)=O)c1
    /	-0.28
- CSc1nc(Sc2ccc(F)cc2)c2sc3ccccc3c2n1
    /	-0.66

# Later entries:
# Order of results: AID504770	CapD inh
- CC12CCCCC13NC(=O)CN3c1ccccc12 (centres undefined)
    /	-0.3
- O=C(O)c1cccc(N=CC23c4ccccc4C(c4ccccc42)C2C(=O)N(c4ccc(Br)cc4)C(=O)C23)c1 (centres undefined)
    /	0.67
- O=C(NCc1csc(-c2cccs2)n1)c1ccno1
    1.35	37.8
- O=C(OCCCl)N1CCN(c2ccccc2Cl)CC1
    /	-0.595
- Cc1cc(C)nc(N(C#N)CC(=O)N2CCC(C(N)=O)CC2)n1
    0.05	/
- O=[N+]([O-])c1ccccc1S(=O)(=O)N1c2cccc3cccc(c23)S1(=O)=O
    /	-0.495
- Cc1nn(C2CCS(=O)(=O)C2)c(Cl)c1/C=C/C(=O)OCCCn1c(=O)[nH]c2ccccc21 (centres undefined)
    0	/
- O=C(O)CNC(=O)OCc1ccccc1
    -0.35	/
- CN(/N=C1/CCN(C2CCCCC2)C1=O)c1ccc(Cl)cc1
    1.95	-0.585
- O=c1oc2c3c(ccc2c2c1CCC2)OCN(c1ccc(Cl)cc1)C3
    /	3.12
- COc1ccc(C2=N/C(=C/c3cc4ccccc4n3C(C)=O)C(=O)O2)cc1Br
    /	0.415
- COc1ccc(S(=O)(=O)N(CCC#N)C2CCCc3ccccc32)cc1OC (centres undefined)
    1.45	-0.57
- CCn1ncc(CN2CCN(C(=S)Nc3ccc(Br)cc3Cl)CC2)c1C
    2.1	-0.025
- Cc1cc(C#N)c(C)n1-c1ccc(Br)cc1
    -0.05	0.43
- CCc1ccc(-c2nc(NC(C)=O)c3c(=O)oc4ccccc4c3n2)cc1
    /	-0.155
- C/C=C(\C)C(=O)O[C@H]1C[C@@H](OC(C)=O)[C@@]2(C(=O)OC)CO[C@@H]3C2[C@]12CO[C@](O)(C(=O)OC)[C@H]2[C@](C)(C12O[C@@]1(C)[C@H]1C[C@@H]2OC2OC=C[C@@]21O)[C@@H]3O (some centres undefined)
    0.1	0.235
- O=C(OCC(=O)N1CCCCC1)c1ccccc1C(F)(F)F
    -0.45	-0.47
- COc1cccc(/C=N/NC(=O)CNc2ccccc2)c1
    -0.65	-0.09
- O=C1c2ccccc2C(=O)N1CCN1c2cccc3cccc(c23)S1(=O)=O
    0	/
- CC(C)NC(=O)C(N)Cc1c[nH]c2ccccc12 (centres undefined)
    -0.4	/

# Order of results: AID504770	CapD inh
- CN(C)S(=O)(=O)c1ccc(C(=O)N2CCN(c3ccccc3)CC2)cc1
    -0.05	0.29
- COc1ccc(C2CC(=O)C3=C(C2)Nc2ccccc2NC3c2cc3c(cc2Br)OCO3)cc1OC (centres undefined)
    /	-0.725
- CSC(=N)n1nc(SC)nc1N
    /	0.805
- Cc1cc(C(=O)O)c(CN2CCCC2)o1
    -0.95	/
- O=c1c2ccccc2c(-c2ccccc2)nn1Cc1ccccc1
    0.2	-0.155
- CC1CCCC(NC(=O)CN2CCCN(Cc3ccc(F)cc3Cl)C2=O)C1C (centres undefined)
    1.2	0.055
- C=CCn1c(-c2c(Nc3ccc(Cl)cc3)sc(C(=O)c3ccccc3)c2N)nnc1N1CCOCC1
    -0.9	/
- CCN(C(=O)c1cnn(-c2ccccc2)n1)c1nc2c(C)cccc2s1
    2.35	/
- NCCCSC1=NCCCN1
    -0.7	/
- O=C(COc1cccc(Cl)c1)Oc1ccc2c3c(c(=O)oc2c1)CCC3
    0.7	3.64
- O=C(CCn1nc(-c2ccc(Cl)cc2)ccc1=O)NCCN1CCN(c2cccc(Cl)c2)CC1
    0.45	1.32
- Cc1ccccc1OCC(O)Cn1c2ccccc2c2ccccc21 (centres undefined)
    -0.3	0.21
- O=C(O)CCn1cc(I)c(=O)[nH]c1=O
    0.75	-0.58
- Cc1nn(C)c(Oc2ccccc2)c1CCNC(=O)c1ccc(Cl)cc1
    /	0.15
- CCn1cc(C=C(C#N)C#N)c2ccccc21
    -1.2	/
- CCN(C(=O)c1cccc(OC)c1)c1cccc2ccccc12
    -0.5	-1.31
- CC(=O)c1c2c3c(c(Br)ccc3n(C)c1=O)C(=O)c1ccccc1-2
    /	-0.505
- COc1ccc(C(=O)N/N=C2\CCc3ccccc32)cc1OC
    -0.1	/
- CN1CCN(CC(O)COc2ccc(C3CCCCC3)cc2)CC1 (centres undefined)
    -0.95	-1.08
- CC1CC(C)CN(C(=O)c2cc(-c3ccccn3)nc3ccc(S(=O)(=O)N4CCOCC4)cc23)C1 (centres undefined)
    -0.15	0.13

# Order of results: AID504770	CapD inh
- O=C(c1ccc(Cl)cc1)C1CCN(C(=O)c2cnc3ccccc3n2)CC1
    -0.35	-0.345
- CCn1cc(CNC(=S)NC2CCCC2)cn1
    0.1	0.4
- CSc1ccc(-c2cc(=O)c3ccccc3o2)cc1
    0.55	3.2
- Clc1cc(Cl)c2c(c1)C=C1CCCCC1(N1CCOCC1)O2 (centres undefined)
    /	-0.375
- NC(=O)C(c1ccc(Cl)cc1)c1nc2ccccc2nc1C(F)(F)F (centres undefined)
    /	1.44
- O=S(=O)(c1cc(Br)c(Cl)s1)N1CCOCC1
    /	-0.64
- Cc1ccc(C)c(NC(=O)C(OC(=O)c2cccnc2Cl)c2ccccc2)c1 (centres undefined)
    2.15	-0.305
- CCN(CC)c1ccc(/C=N/NC(=O)c2ccc3nonc3c2)cc1
    /	1.9
- O=C(O)CNC(=O)c1ccc(CO)cc1
    1	/
- COc1ccc(C(=O)OCCN(C2=NS(=O)(=O)c3ccccc32)c2cccc(C)c2)cc1
    /	-0.015
- O=c1oc(C2CC2)nc2ccccc12
    -0.75	-0.26
- CCC(C(=O)N1CCc2ccccc2C1)n1nc(C)n2c(cc3sccc32)c1=O (centres undefined)
    -0.55	1.84
- Cc1ccc(NC(=O)COC(=O)CSC2CCS(=O)(=O)C2)cc1C (centres undefined)
    -0.25	/
- CCc1ccc(C2CC(=O)NC3=C2C(=O)CCC3)cc1 (centres undefined)
    0.05	18.3
- O=S(=O)(Nc1nc2ccccc2nc1OCC(F)(F)F)c1cccs1
    -0.55	/
- N#CCCN(CCN1CCCC1)S(=O)(=O)c1cccc2nsnc12
    /	-0.295
- O=c1[nH]c2c(=O)[nH]c(=S)[nH]c2nc1/C=C(\O)c1ccccc1
    1.05	-3.64
- CCOC(=O)CSc1nsc(SCC(=O)OCC)c1C#N
    -0.9	0.145
- COc1ccc(CN2CCCN(Cc3ccc(OC)cc3)C2c2cccc(C)n2)cc1
    2.5	-0.66
- O=C(Cn1nc(Cc2ccncc2)c2ccccc2c1=O)N1CCCc2ccccc21
    -0.6	-0.515

# Order of results: AID504770	CapD inh
- Cc1nc(SCc2c(F)c(F)c(F)c(F)c2F)c2ccccc2n1
    -0.3	/
- CS(=O)c1scc(-c2cccc(C(F)(F)F)c2)c1C#N (centres undefined)
    -0.05	-0.29
- OC(CNCC1COc2ccccc2O1)COc1ccccc1F (centres undefined)
    -0.25	/
- O=[N+]([O-])c1ccc(Sc2ccccc2)cc1O
    /	-1.69
- Cc1onc(-c2c(Cl)cccc2Cl)c1C(=O)Oc1ccc(CC#N)cc1
    /	0.45
- CC(=O)n1cc(N2C(=O)C3C4C=CC(C4)C3C2=O)c(=O)[nH]c1=O (centres undefined)
    -0.9	0.02
- O=C(Cn1c(=O)sc2ccccc21)OCc1ccccc1
    -0.2	/
- CCOC(=O)CSc1n[nH]c(N)n1
    -1.2	-0.3
- CSc1nc2ccccc2c(=O)n1-c1cccnc1
    2.4	-0.895
- CC(C)Cn1[nH]nnc1=S
    -0.5	/
- COc1ccc(S(=O)(=O)N(C)CC(O)c2ccccc2)cc1 (centres undefined)
    /	0.05
- O=[n+]1cc(-c2ccc(F)cc2)n([O-])c2c1CCCC2
    -0.05	0.865
- CO/N=C(\C(=O)NC1C(=O)N2C(C(=O)O)=C(CSc3nc(=O)c(O)nn3C)CS[C@H]12)c1csc(N)n1 (some centres undefined)
    /	0.01
- COc1ccc(C2OC(=O)C(C)(C)C(=O)C2C)cc1OC (centres undefined)
    -2.9	-0.085
- O=C(CSc1nnc2sc3ccccc3n12)Nc1ccccc1F
    /	0.4
- Cn1cccc1C(=O)N/N=C/c1c[nH]c2ccccc12
    /	-0.205
- Cn1nc(C(F)(F)F)c(/C=N/O)c1Sc1ccccc1
    0.45	-0.645
- O=C1/C(=C/c2ccc(-c3ccc(S(=O)(=O)Nc4nccs4)cc3)o2)Sc2ccccc21
    /	-0.375
- COc1cc(NC(=O)CCS(=O)(=O)c2ccc3c(c2)NC(=O)C(C)S3)cc(OC)c1 (centres undefined)
    -0.95	-0.24
- Cc1cc(NC(=O)C2CC3CCCN3C23C(=O)N(C)c2ccccc23)ccc1Br (centres undefined)
    -1.55	-0.455

# Order of results: AID504770	CapD inh
- Cc1cccc(Nc2nc(NC(C)C)nc(Oc3ccc(=O)n(C)n3)n2)c1
    -0.6	0.31
- O=C(Cc1cn(Cc2cccc(Cl)c2)c2ccccc12)Nc1nc2ccccc2s1
    /	0.21
- Cn1cc(-c2nc3ccccc3[nH]2)c(-c2ccccc2)n1
    -0.65	/
- CC(=O)Nc1ccc(S(=O)(=O)N2CCN(c3nc(-c4ccccc4)ns3)CC2)cc1
    /	0.41
- CCCc1cc(=O)n2[nH]c(NC(=O)CCc3ccccc3)nc2n1
    -0.9	/
- COc1ccccc1C(O)(C(=O)NNc1cccc(Br)n1)c1ccccc1OC
    -0.4	/
- O=C(O)C1C2CCC(C2)C1C(=O)NCc1ccco1 (centres undefined)
    -0.6	0.415
- C=C(C)C1CC=C(CN2CCN(c3ccccc3)CC2)CC1 (centres undefined)
    -1.25	-0.035
- COC(=O)CSc1nc2[nH]c(=O)cc(O)c2s1
    0	/
- CC(C(=O)NC(=O)NC1CCCCC1)N1CCN(S(=O)(=O)c2ccc3c(c2)OCCCO3)CC1 (centres undefined)
    0.4	/
- COc1ccc(C)c(N2C(=O)CC(N3CCN(c4ccc(F)cc4)CC3)C2=O)c1 (centres undefined)
    2.15	/
- O=C1/C(=C/c2cc(Br)cs2)CCC1C1CCCC1 (centres undefined)
    -1.2	-0.3
- Cn1c(=O)n(C)c2cc(/C=C3/SC(=O)N(Cc4ccc(Cl)cc4)C3=O)ccc21
    -0.3	0.04
- COc1ccc(C2Nc3ccccc3C(=O)N2Cc2ccco2)cc1COc1cccc(C)c1C (centres undefined)
    /	50.3
- Fc1ccccc1CN1CCN(c2cccc3[nH]ccc23)CC1
    1.35	0.34
- COc1cc(NC(=O)CN2C(=O)COc3cc(S(=O)(=O)N4CCOCC4)ccc32)cc(OC)c1
    1.05	-1.33
- C=CCn1cc(Cc2cn(CC=C)nc2C)c(C)n1
    -0.5	-0.335

# Some of the entries above, set out differently:
SMILES	AID504770	CapD inh
CC1CC(C)CN(C(=O)c2cc(-c3ccccn3)nc3ccc(S(=O)(=O)N4CCOCC4)cc23)C1 (centres undefined)	-0.15	0.13
O=C(c1ccc(Cl)cc1)C1CCN(C(=O)c2cnc3ccccc3n2)CC1	-0.35	-0.345

# Screening data from PubChem BioAssay.
